Ecoli growth = blocks Escherichia coli growth; OD600, 23 h; stronger effect = lower value; OD600 absorbance (concentration not given with the values); 330,000 compounds, 0.21% hits; AID 1053175;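 active means OD600 absorbance below the run mean of sample wells minus 3.6 SD, in any replicate, cut at about 0.56 in these data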;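 further: stock transfer was 300 nL into about 60 µL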
HNF4A DNA FP = change in binding of human HNF4 alpha to DNA. P41235. HNF4a-FITC DNA binding, fluorescence polarization, 1 h. activity change, % at 10 µM. 360,000 compounds, 0.3% hits; in the data active means activity change above about 30%, passing the limit was not always enough;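 further: controls were the assay level and a saturating level of protein; the project sought stronger binding though the title names inhibitors; some compounds called inactive have numbers as strong as hits; positive values seem to mean higher polarization but the record does not say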
Target sequence (P41235 whole entry, looked up): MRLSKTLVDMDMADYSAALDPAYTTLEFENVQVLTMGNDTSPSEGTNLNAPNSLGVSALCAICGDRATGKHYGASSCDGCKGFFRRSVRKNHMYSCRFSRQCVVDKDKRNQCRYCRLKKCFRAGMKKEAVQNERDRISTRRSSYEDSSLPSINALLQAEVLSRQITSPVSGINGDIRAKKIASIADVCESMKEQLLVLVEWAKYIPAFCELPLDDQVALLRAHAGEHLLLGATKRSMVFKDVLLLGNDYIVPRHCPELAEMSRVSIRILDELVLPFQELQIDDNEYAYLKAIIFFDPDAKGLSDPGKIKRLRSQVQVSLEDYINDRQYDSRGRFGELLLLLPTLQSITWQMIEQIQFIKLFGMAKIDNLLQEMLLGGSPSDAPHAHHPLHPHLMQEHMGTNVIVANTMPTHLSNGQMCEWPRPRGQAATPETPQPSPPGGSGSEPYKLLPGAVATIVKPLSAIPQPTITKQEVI
UCH37 inh = human UCH37 deubiquitinating enzyme inhibition; purified proteasome/UCH37, Ub-AMC cleavage fluorescence; inhibition, % (test concentration not listed); 330,000 compounds, 0.33% hits; AID 588478;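 active means mean of two replicates above 20%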;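 further: 0% = compound-free wells with enzyme and 100% = wells lacking proteasome; stock transfer was 100 nL into about 20 µL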
Target sequence (Q9Y5K5 whole entry, looked up): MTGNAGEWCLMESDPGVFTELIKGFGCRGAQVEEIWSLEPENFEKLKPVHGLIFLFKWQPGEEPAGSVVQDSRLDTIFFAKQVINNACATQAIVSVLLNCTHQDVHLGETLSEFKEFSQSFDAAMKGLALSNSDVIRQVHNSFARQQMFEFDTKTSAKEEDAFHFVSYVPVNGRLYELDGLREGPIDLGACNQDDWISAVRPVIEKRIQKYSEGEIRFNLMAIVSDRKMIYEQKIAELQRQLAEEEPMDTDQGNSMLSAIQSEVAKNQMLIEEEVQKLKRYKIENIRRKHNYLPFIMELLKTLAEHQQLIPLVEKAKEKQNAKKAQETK
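Material: Human UCH37 enzyme supplied as purified proteasome complex | Schedule: 30 min preincubation with enzyme, 25 min cleavage at room temperature | Detection: AMC fluorescence 355/460 nm | Measure: % inhibition of Ub-AMC cleavage fluorescence | Controls: Wells without proteasome as full block, compound-free enzyme plus substrate as uninhibited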
rRNA inh HTS = selective bacterial rRNA inhibition in E. coli. GFP signal change (wild-type ribosome), % (no concentration beside the values). 350,000 compounds, 1.6% hits. E. coli WT GFP vs humanized-ribosome RFP mutants, fluorescence, 24 h; stronger effect = lower value; DMSO median 0, no signal -100;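 active means significant combined selectivity score with lowered wild-type GFP, culture density cut under 30%, mutant RFP and density less affected; inactive means any of these conditions unmet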; further: one replicate is shown; some compounds called inactive have numbers as strong as hits
ALR inh = human ALR oxidase inhibition via reduced H2O2; purified ALR, DTT oxidation, H2O2 HRP-luminol luminescence; inhibition, % (no concentration beside the values); P55789; 290,000 compounds, 3.8% hits; AID 485317;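 active means mean and each replicate at 75% or more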;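 further: stock transfer was 7.5 nL into about 7.5 µL; 0% = neutral wells and 100% = wells with inactivated enzyme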
Target sequence (P55789 whole entry, looked up): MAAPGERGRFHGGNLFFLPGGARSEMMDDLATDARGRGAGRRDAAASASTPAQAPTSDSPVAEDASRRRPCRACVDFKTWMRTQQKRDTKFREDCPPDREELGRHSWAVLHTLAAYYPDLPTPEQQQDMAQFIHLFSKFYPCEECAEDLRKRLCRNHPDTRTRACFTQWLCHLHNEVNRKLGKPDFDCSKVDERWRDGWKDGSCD
B2AR ag = human beta-2 adrenergic receptor agonism by FAP; Am2.2-beta2AR cells, FAP receptor internalization, flow cytometry; reference of the scale not given here; 340,000 compounds, 0.43% hits; AID 504454; P07550; response, % (no concentration beside the values);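 active means response above a set limit, near 3 SD of response in nonfluorescent compounds, cut at about 42% in these data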;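 further: stock transfer was 100 nL into about 11 µL; a reference agonist was the positive control; negative values mostly stem from fluorescent compounds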
FGF22 binding = binders of recombinant human FGF22 by thermal shift | SYPRO orange fluorescence; percent of sucrose octasulfate shift, DMSO zero | calls only at 9.99 µM | 340,000 compounds, 1.5% hits;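 active means melting point raised past a set limit in the mean and every replicate; three in four hits are not shown here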
rRNA inh HTS OD600 = second read-out of rRNA inh HTS, no call of its own (marks repeat the call); OD600 change, %; measured here: OD600 growth;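 optical density of the mix in the first replicate; 0 = DMSO median and -100 = no signal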
rRNA inh HTS RFP = second read-out of rRNA inh HTS, no call of its own (marks repeat the call); RFP signal change, %; measured here: RFP humanized mutant strains;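 first replicate; 0 = DMSO median and -100 = no signal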
* hit, by the source's call; i = inactive; / = no result given; & = joins results of further samples. An excerpt; rates above refer to the full screens.

no.	Structure	Ecoli growth	HNF4A DNA FP	UCH37 inh	rRNA inh HTS	rRNA inh HTS OD600	rRNA inh HTS RFP	ALR inh	B2AR ag	FGF22 binding
1	O=C(Nc1ccc(O)cc1)c1cc2n(n1)C(C(F)(F)F)CC(c1ccco1)N2 (stereo not drawn)	0.69	-0.1	5.0	/	/	/	99*	1	/
2	CC(C)N(C)CCOC(=O)c1ccccc1Br	0.7	-0.4	0.9	/	/	/	1	3	/
3	CCOC(=O)c1cnc2c(c(C)nn2CC)c1NC1CC1	0.72	-4.7	6.0	-16	-7	-2.1	/	7	i
4	Cc1ccc(C)c(NC2=NC3(CCCCC3)N=C(N)N2)c1	0.71	-0.8	0.5	6	11	-1.8	-6	-3	/
5	c1ccc(-c2cnnc(SCc3cn4cccnc4n3)n2)cc1	0.65	-0.7	12	/	/	/	19	-8	/
6	CC1CCN(S(=O)(=O)c2cn(CC(=O)N3CCN(c4cccc(C(F)(F)F)c4)CC3)cn2)CC1	0.67	-0.5	2.2	/	/	/	-15	0	/
7	Cc1c(C(=O)NCc2ccccc2C(F)(F)F)sc(=O)n1Cc1ccc(S(=O)(=O)N(C)C)cc1	/	5.1	/	0	-2	-4.7	/	/	i
8	COc1ccc(/C=C(\C)C(=O)c2c(C)cc(C)[nH]c2=O)cc1	0.66	-0.8	13	10	0	-0.4	-7	-1	i
9	COc1ccccc1NC(=O)CN1CCN(CC(=O)Nc2ccc(F)cc2)CC1	0.76	-1.7	3.8	/	/	/	/	3	/
10	CC(=NNC(=S)N1CC2CCC(CC2)C1)c1ccccn1	/	0.4	/	6	16	-6.3	/	/	i

Continued; the last 6 above are carried over.
no.	Structure	Ecoli growth	HNF4A DNA FP	UCH37 inh	rRNA inh HTS	rRNA inh HTS OD600	rRNA inh HTS RFP	ALR inh	B2AR ag	FGF22 binding
5	c1ccc(-c2cnnc(SCc3cn4cccnc4n3)n2)cc1	0.65	-0.7	12	/	/	/	19	-8	/
6	CC1CCN(S(=O)(=O)c2cn(CC(=O)N3CCN(c4cccc(C(F)(F)F)c4)CC3)cn2)CC1	0.67	-0.5	2.2	/	/	/	-15	0	/
7	Cc1c(C(=O)NCc2ccccc2C(F)(F)F)sc(=O)n1Cc1ccc(S(=O)(=O)N(C)C)cc1	/	5.1	/	0	-2	-4.7	/	/	i
8	COc1ccc(/C=C(\C)C(=O)c2c(C)cc(C)[nH]c2=O)cc1	0.66	-0.8	13	10	0	-0.4	-7	-1	i
9	COc1ccccc1NC(=O)CN1CCN(CC(=O)Nc2ccc(F)cc2)CC1	0.76	-1.7	3.8	/	/	/	/	3	/
10	CC(=NNC(=S)N1CC2CCC(CC2)C1)c1ccccn1	/	0.4	/	6	16	-6.3	/	/	i
11	NS(=O)(=O)c1ccc(Sc2nc3ccccc3s2)c([N+](=O)[O-])c1	0.69	6.7	7.5	-25*	-19*	-7.6*	98*	1	i
12	COc1ccc(NC(=O)CSc2nnc(Cc3ccc(C)cc3)c(=O)n2N)cc1OC	0.71	-0.8	0.1	4	13	-1.2	91*	-5	i
13	COc1ccc(-n2nnnc2CNC(=O)c2c(-c3ccccc3Cl)noc2C)cc1	/	-1.6	/	3	3	6.1	/	/	i
14	CC(C)(C)OC(=O)C[C@H]1C/C=C\C[C@H](CC(=O)N[C@@H](CO)Cc2ccccc2)C(=O)N[C@H](C(C)(C)C)COC1=O	0.72	1.6	-0.5	2	-8	-1.8	/	3	i
15	Cc1ccc2c(c1)[C@H]1[C@H](CO2)[C@H](c2ccccc2)[C@]2(C)C(=O)N(Cc3ccccc3)CC(=O)N12	/	3.4	0.9	4	9	-0.1	2	-7	i
16	Cc1c(C(=O)NCc2cccnc2)oc2ccc(S(=O)(=O)N3CCC4(CC3)OCCO4)cc12	0.66	3.0	3.9	/	/	/	-11	1	/
17	CC(=O)c1cccc(N(CC(=O)Nc2ccc(S(=O)(=O)N3CCOCC3)cc2)S(C)(=O)=O)c1	0.68	0.5	5.1	4	-1	-1.1	-1	5	i
18	Cc1ccc(Nc2cc(C)nc(N3CCOCC3)n2)c(C)c1	0.66	16	1.5	-6	-10	7.9	8	0	i
19	CCOCCOC(=O)C1=C(C)NC(=O)NC1c1ccc2c(c1)OCO2 (stereo not drawn)	0.66	-3.0	-0.3	11	11	0.8	0	-4	i
20	CCC(=O)OC1CSc2nc3ccccc3n2C1 (stereo not drawn)	0.73	1.0	3.1	/	/	/	0	-4	/
21	COc1cccc2c1-c1c(O)cccc1C2=O	0.69	-2.1	7.9	-6	-3	-1.2	/	-5	i
22	CC(=O)c1ccc(N2CCN(C(=O)c3ccc4c(=O)n(-c5ccccc5)c(=O)[nH]c4c3)CC2)cc1	0.72	2.3	3.4	/	/	/	-2	3	/
23	CCC(C)Sc1cc(-c2nc3ccc(C)cn3c2NCc2ccccc2)ccc1OC (stereo not drawn)	0.8	0.0&-1.6	-265	/	/	/	6	31	i
24	COC(=O)c1ccccc1NC(=O)C1CCCO1 (stereo not drawn)	0.73	0.8	1.8	/	/	/	-36	1	/
25	Nc1ccc2c(c1)[nH]c(=O)c1cc(N)ccc12	/	4.0	/	-10	7	-13	/	/	i
26	Cc1cc(C)c2cc(C#N)c(NCCNC(=S)NCCCN3CCOCC3)nc2c1	0.65	-0.6	-88	-7	-9	1.9	28	3	i
27	Fc1ccc(CNCc2ccccc2C(F)(F)F)cc1	0.64	3.3	5.0	/	/	/	5	-4	/
28	NC1=NN=C(c2ccc3c(c2)OCCO3)CS1	0.69	0.5	4.7	0	1	1.3	99*	-1	i
29	O=C(c1ccccc1)N1CCN(CC2CC=CCC2)CC1 (stereo not drawn)	0.72	-1.1	3.4	/	/	/	-1	8	/
30	CC1(C)CC(=O)C=C(c2ccc(-c3ccccc3)cc2)C1	0.72	-0.2	0.9	3	8	-3.2	5	0	i
31	O=C(Cc1cccs1)NNC(=O)c1ccccc1Cl	0.66	-2.7	1.9	7	10	1.3	/	-1	i
32	COc1ccc(C(=O)N2CCC(C(=O)Nc3ccccc3C)CC2)cc1OC	0.67	-2.4	4.1	7	2	-1.9	8	-3	i
33	COc1cccc(N2C(=O)/C(=C\c3cccs3)NC2=S)c1	0.72	2.3	5.4	-7	-6	-6.4	50	-5	i
34	COc1ccc(Br)cc1CN(C)CC(O)COc1ccc(Br)cc1 (stereo not drawn)	0.61	6.3	2.3	-64	-81	-16	/	-6	i
35	C=C(C)C(=O)Nc1ccc2c(c1)OCCOCCOCCO2	0.65	-37	0.6	-11	2	5.8	-1	-6	i
36	O=C(CCCN1C(=O)C(c2ccccc2)Oc2cccnc21)NCc1ccc(F)cc1 (stereo not drawn)	0.73	0.8	7.8	4	4	-0.1	3	0	i
37	COc1ccc(-n2nc(C(=O)NCC(=O)N3CCCCC3)c3ccccc3c2=O)cc1	0.7	-2.5	2.1	2	7	-1.7	-1	5	i
38	c1ccc(-c2cn3c(n2)SCC3)cc1	0.73	1.4	-3.7	/	/	/	30	3	/
39	C#CCN(Cc1ccco1)C(=O)c1ccc(OC2CCN(Cc3ccccn3)CC2)cc1	0.69	5.8	2.1	-6	-3	1.9	0	-2	i
40	Cc1sc(NC(=O)C2CSC3(C)CCC(=O)N23)nc1-c1ccc(F)cc1 (stereo not drawn)	0.65	-0.6	1.4	3	2	5.9	25	3	i
41	O=C(CSc1nnc(CNC(=O)c2ccc(F)cc2)o1)NCc1ccccc1Cl	0.69	3.6	6.4	9	3	0.1	-17	-18	i
42	CCc1nnc(NC(=O)c2cccc(S(=O)(=O)N3CCc4ccccc43)c2)s1	0.77	-0.6	-4.2	/	/	/	15	-4	/
43	CCn1c(CNC(=O)c2ccc3c(c2)OCO3)nnc1SCC(=O)Nc1ccccc1F	0.69	0.7	1.3	0	5	-1.3	16	27	i
44	Cc1ccc(C(=O)C[n+]2cc(-c3ccc(C)cc3)n3c2CCCCC3)cc1	0.64	-0.9	0.9	/	/	/	-2	-1	/
45	CCS(=O)(=O)c1nc(S(=O)(=O)c2ccc(Cl)cc2)c(N2CCC(O)CC2)s1	0.64	3.5	4.8	-5	-8	-1.3	-1	0	i
46	O=C(NCCc1cccc(Cl)c1)C1CCC(=O)N(Cc2ccc(Cl)cc2)C1 (stereo not drawn)	0.69	-4.5	5.9	-38	-57	-0.4	-8	-2	i
47	COc1cccc(OC)c1NC(=O)c1nc2c(nnn2Cc2ccccc2Cl)c(=O)[nH]1	0.71	1.1	5.0	-37	-53	-7.8	3	29	i
48	CCOc1ccccc1C(=O)NCC(=O)OCC(=O)N1CCCC1	0.68	1.5	1.4	18	16	1.6	0	-5	i
49	O=C(COc1ccccc1)OCC(=O)N1CCCc2ccccc21	0.69	-0.1	5.5	7	4	0.1	/	2	i
50	Cc1ccc(NC(=O)COC(=O)CCc2ccccc2)c(Cl)c1	0.66	-2.8	0.7	7	6	0.2	-7	4	i
51	CN(C(=O)CN1C(=O)NC(C)(CCc2ccccc2)C1=O)c1ccccc1 (stereo not drawn)	0.67	-2.6	1.3	6	2	-0.2	-2	-9	i
52	CC(C)(C)c1ccc(C(=O)N/N=C/c2ccccn2)cc1	/	0.7	/	-24	-22	-3.6	-7	17	i
53	COc1ccc(S(=O)(=O)N2CCNC(=O)C2)cc1Br	0.66	0.3	1.6	18	13	-1.5	-22	7	i
54	CC(Sc1nnc(-c2ccccc2F)n1C1CC1)C(N)=O (stereo not drawn)	0.66	2.4	2.0	-1	-1	-1.6	-2	6	i
55	Cc1ccc(NC(=O)C=NOCC(=O)Nc2cc(C)cc(C)c2)cc1	0.7	3.5	0.6	3	7	0.2	-1	-4	i
56	O=C(NCC(=O)N1CCN(S(=O)(=O)c2ccccc2F)CC1)c1ccc2c(c1)OCO2	0.68	0.9	3.2	6	7	-1.6	4	5	i
57	COc1ccc(Nc2c(-c3cc4ccccc4o3)nc3nc(C)cc(C)n23)cc1	/	11	/	4	14	1.3	/	/	i
58	C(=N\N1CCN(Cc2cccc3ccccc23)CC1)/c1cccnc1	/	2.8	/	-30*	0.5*	-1.2*	-3	-1	i
59	Cc1oc(-c2ccccc2Cl)nc1CSCC(=O)O	0.77	0.6	3.7	-3	-8	-0.6	/	9	i
60	CCOC(=O)c1ncn2c1CN(C)C(=O)c1cc(F)ccc1-2	0.69	1.5	1.6	/	/	/	-6	-7	i

Following part:
no.	Structure	Ecoli growth	HNF4A DNA FP	UCH37 inh	rRNA inh HTS	rRNA inh HTS OD600	rRNA inh HTS RFP	ALR inh	B2AR ag	FGF22 binding
61	N#Cc1ccccc1NC(=S)Nc1ccc(F)cc1	0.69	2.1	3.0	2	0	-0.1	-20	3	i
62	CCOC(=O)CSc1nc2cccnc2n1-c1ccc(F)cc1	0.7	-0.5	1.3	/	/	/	6	-4	/
63	Cn1ncc([N+](=O)[O-])c1C(=O)Nc1ccc(Cl)cc1	0.68	0.3	1.5	4	-1	-4.3	/	0	i
64	CN(c1ccc(C(=O)Nc2ccc3c(c2)n(C)c(=O)n3C)cc1)S(C)(=O)=O	0.64	0.8	3.7	13	9	-4.4	8	6	i
